Bioassay records as filed in PubChem BioAssay.
LEDGF integ inh: blocks HIV-1 LEDGF/p75-dependent DNA integration; inhibition, % at 3.7 µM; TR-FRET IN-LEDGF/p75 DNA integration, Eu/Cy5; hit rate 0.64% among 370,000;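 active means inhibition above the screen-wide mean plus 3 SD, cut at about 13% in these data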;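 further: signal is the Cy5 over europium emission ratio at 671 and 618 nm; 0% = plate median of compound wells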
SIAE primary: human SIAE inhibition, primary screen; inhibition, % at 9.66 µM; SIAE FP-Rh probe binding, fluorescence polarization; hit rate 0.69% among 370,000; Q9HAT2;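 active means inhibition above a cutoff: mean of compounds within the control limits plus 3 SD of those, cut at about 17% in these data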;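 further: 0% = plate median of compound wells and 100% = probe without SIAE protein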
UHRF1 binding: human UHRF1 methylated DNA binding inhibitors; Q96T88; UHRF1 binding to methylated oligo, TR-FRET; inhibition, % at 4.4 µM; hit rate 0.75% among 370,000; AID 687016; in the data active means inhibition above about 21%;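 further: UHRF1 SRA domain binding a hemimethylated CpG hairpin DNA probe; 0% = median of test compound wells and 100% = reference inhibitor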
PG9 binder: binds the HIV-1 gp120 antibody PG9 | inhibition, % at 6.7 µM | hit rate 0.43% among 360,000 | TR-FRET gp120-PG9 antibody binding; in the data active means inhibition above about 8.5%
Tn7 DDE FP: DD(E)-Tn7 binding inhibition, primary FP screen. AID 720508. P02675. inhibition, % at 8.3 µM. hit rate 0.13% among 370,000. FP displacement of FITC-Tn7 peptide from fibrin DD(E); 0% = median of compound wells per plate;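 active means inhibition above the mean of compounds falling within the control limits plus 3 SD of them, cut at about 14% in these data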;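 further: 0% = plate median of compound wells and 100% = 10 µM Aha-Tn7 peptide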
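Also added: labelled Tn7 tracer, 0.1 µM; Assay system: human fibrin DD(E) protein; Amount: 2 µM fibrin DD(E); Schedule: 10 min compound pre-incubation, 3 h probe incubation at room temperature; Repeats: one replicate per compound; Read-out basis: percent inhibition; Measured by: fluorescence polarization of the labelled Tn7 tracer.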
TCR-CD3 inh: inhibitors of human TCR-CD3 interaction | TAMRA-labeled TCR probe fluorescence, biochemical | inhibition, % at 9.4 µM | hit rate 0.37% among 360,000 | AID 651800; in the data active means inhibition above about 19%;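 further: recombinant mutant TCR 2C K166C tagged with TAMRA read by polarization; 0% = receptor in buffer alone and 100% = receptor with positive control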
ABHD4 inh: ABHD4 (mouse) inhibition, primary FP screen; inhibition, % at 8.92 µM; hit rate 0.54% among 370,000; purified mABHD4, FP-Rh probe fluorescence polarization;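 active means inhibition exceeding the mean over every tested compound plus 3 SD, cut at about 30% in these data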;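 further: 0% = plate median of compound wells and 100% = S159A mutant with DMSO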
Target sequence (Q8VD66 whole entry, looked up): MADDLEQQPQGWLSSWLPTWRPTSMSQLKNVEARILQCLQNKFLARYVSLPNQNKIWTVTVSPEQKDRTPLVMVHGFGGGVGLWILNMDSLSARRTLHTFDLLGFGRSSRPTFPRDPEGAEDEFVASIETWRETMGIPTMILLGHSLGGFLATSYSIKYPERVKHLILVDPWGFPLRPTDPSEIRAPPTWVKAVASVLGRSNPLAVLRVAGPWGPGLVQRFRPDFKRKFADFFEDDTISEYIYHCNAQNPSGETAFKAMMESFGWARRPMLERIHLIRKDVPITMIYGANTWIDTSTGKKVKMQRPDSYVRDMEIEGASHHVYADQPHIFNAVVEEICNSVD
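Doses – 8.92 µM, single dose · Material – wild-type mouse ABHD4 protein · Replication – single well per compound (singlicate) · Measure – percent inhibition of probe binding, normalized to plate controls · Schedule – 45 min compound pre-incubation plus 60 min probe step, 25 °C · Detection – fluorescence polarization with parallel and perpendicular emission, 525/598 nm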
TDP2 absorb: blocks human TDP2 phosphodiesterase activity. O95551. inhibition, % at 12.8 µM. hit rate 0.34% among 370,000. AID 720702. recombinant TDP2, T5PNP hydrolysis, p-nitrophenol absorbance 415 nm;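 active means inhibition above the mean of all tested compounds plus 3 SD, set per campaign, cut at about 25% in these data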;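 further: 0% = DMSO with enzyme and 100% = buffer with substrate but no TDP2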
Target sequence (O95551 whole entry, looked up): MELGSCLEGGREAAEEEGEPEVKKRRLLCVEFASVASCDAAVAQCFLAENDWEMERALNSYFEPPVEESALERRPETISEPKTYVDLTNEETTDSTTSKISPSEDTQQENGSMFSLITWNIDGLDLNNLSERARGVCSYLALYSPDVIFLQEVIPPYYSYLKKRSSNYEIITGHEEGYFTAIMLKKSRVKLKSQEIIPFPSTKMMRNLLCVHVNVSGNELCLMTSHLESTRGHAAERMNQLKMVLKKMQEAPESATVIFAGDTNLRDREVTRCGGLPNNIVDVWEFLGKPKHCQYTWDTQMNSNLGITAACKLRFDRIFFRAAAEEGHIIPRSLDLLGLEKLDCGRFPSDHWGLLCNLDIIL
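System – recombinant human TDP2 · Quantity – TDP2 enzyme at 120 nM final · Doses – single concentration, 12.8 µM nominal, with 1% DMSO · Incubation – 2 h at 37 °C · Measured by – epi absorbance of p-nitrophenol freed from T5PNP by hydrolysis · Read-out – % inhibition relative to enzyme-containing and enzyme-free wells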
PRMT1 FP inh: PRMT1 (human) inhibition, primary screen | Q99873 | recombinant PRMT1, activity-based probe fluorescence polarization | inhibition, % at 2.79 µM | hit rate 1.3% among 370,000;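 active means inhibition above about 21% made by adding two undisclosed values, limit read from the data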
Target sequence (Q99873 whole entry, looked up): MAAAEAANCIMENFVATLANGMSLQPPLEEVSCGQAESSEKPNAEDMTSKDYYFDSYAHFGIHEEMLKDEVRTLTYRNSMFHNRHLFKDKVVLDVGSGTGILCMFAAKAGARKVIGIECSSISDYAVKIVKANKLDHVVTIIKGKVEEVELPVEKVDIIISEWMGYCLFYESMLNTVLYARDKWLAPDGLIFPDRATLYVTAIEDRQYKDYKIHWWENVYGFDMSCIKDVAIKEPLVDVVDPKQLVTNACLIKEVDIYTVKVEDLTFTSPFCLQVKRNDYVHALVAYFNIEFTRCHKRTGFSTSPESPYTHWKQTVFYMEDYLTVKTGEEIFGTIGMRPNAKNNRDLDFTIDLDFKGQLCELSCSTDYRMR
The depositor's hits bear a star; & = joins results of further samples.

smiles	LEDGF integ inh	SIAE primary	UHRF1 binding	PG9 binder	Tn7 DDE FP	TCR-CD3 inh	ABHD4 inh	TDP2 absorb	PRMT1 FP inh
O=C(CSc1cn(Cc2ccccc2)c2ccccc12)Nc1nccs1	4	3	1	-1.3	-4	3	-14	-19	0
O=C(COC(=O)/C=C/c1ccccc1)NC1CCCCCC1	2	-4	1	-0.1	3	3	5	10	1
COc1cnc(-c2ccccn2)nc1Oc1ccc(Cl)cc1	7	8	-1	-0.9	-7	11	2	7	-2
COc1ccc(CNC(=O)c2onc(C)c2Cl)cc1	0	-1	1	0.6	5	3	-2	-5	-3
Cc1onc(-c2c(Cl)cccc2Cl)c1C(=O)N/N=C(\N)COc1ccc(Cl)cc1	1	-4	-2	-1.4	-4	-1	13	-9	0
COc1ccc(OC)c(NC(=O)CSc2nc(N)c(-c3ccccc3)c(=O)[nH]2)c1	0	4	3	-2.0	-4	-6	-1	-2	0
COc1ccc(-c2sc3ccc(OC)cc3c2-c2ccc(OC)c(F)c2)cc1	-1	-6	-1	0.8	-3	-7	7	5	-2
CC(C)[C@@H](C(=O)OCC(=O)c1ccc2c(c1)NC(=O)CO2)N1C(=O)c2ccccc2C1=O	-4	4	1	0.6	-7	-1	0	0	2
Cc1nn(Cc2ccccc2Cl)c(C)c1NC(=O)/C=C/c1cnn(C)c1	-1	4	-4	1.5	-7	-2	4	2	-5
CC(C(=O)NC(C)(C)C)N(Cc1cccs1)C(=O)CCN1CCc2ccccc21 (stereo unspecified)	-4	8	-1	-1.5	3	-7	-6	-7	7
COc1ccc(-n2c(NN)nc3sc4c(c3c2=O)CCCC4)cc1	-1	7	0	1.5	-1	5	2	-4	-1
O=C(O)c1ccc2c(=O)n(-c3ccc(F)c(Cl)c3)c(=S)[nH]c2c1	0	-4	-1	0.1	2	-1	-12	10	-3
FC(F)(F)c1cnc(-c2cnc3c(-c4ccc(Cl)cc4)cnn3c2)c(Cl)c1	1	-4	7	-2.3	12	1	-2	-7	3
O=C(NCCc1c[nH]c2ccccc12)/C(=C\c1ccco1)NC(=O)c1ccco1	-3	2	1	-1.5	6	0	7	5	1
CN(C)CCNC(=O)c1ccc(Sc2ccc(Br)cc2)c([N+](=O)[O-])c1	-3	-1	-1	2.7	1	2	12	-12	1
Cc1onc(-c2ccccc2Cl)c1C(=O)N/N=C(\N)COc1ccc(Cl)cc1	0	-1	-4	-0.2	8	5	11	3	-2
COc1cc(OC)cc(-c2sc3ccc(OC)cc3c2-c2ccc3cc[nH]c3c2)c1	2	10	19	-2.9	2	-3	-11	-14	-1
O=C1C=C(CCc2ccccc2)CCC1	-1	-1	-1	0.4	-1	-4	2	6	-4
CCCCOc1ccc(N2C(=O)CC(N(O)c3ccccc3)C2=O)cc1 (stereo unspecified)	1	-1	0	-1.8	-5	-2	-3	-8	2
O=C(O)c1cc(-c2ccccc2Cl)n[nH]1	1	-5	1	-1.5	-1	0	-10	-17	-2
COc1ccc(-c2cc(=O)c3cc(O)ccc3o2)cc1	-4	2	-4	-0.1	0	8	2	4	-4
Fc1cccc(Cl)c1CSc1ncn[nH]1	3	-6	8	1.2	-3	-7	-2	-2	3
C/C(N)=C(/C#N)C(=O)CSc1n[nH]c(-c2cccs2)n1	0	1	1	0.6	9	6	-5	13	-4
CCN1N=C(c2ccccc2)CCC1=O	2	-4	4	-0.9	-3	-8	-6	12	-4
CCc1nc2sc3c(c2c(=O)n1CCO)CCC3	-5	-1	4	-1.9	6	4	3	-16	-2
CCCCC1=CC2=CC(=O)C(C)(OC(=O)CCc3ccccc3)C(=O)C2=CO1 (stereo unspecified)	3	-2	-3	-2.0	3	-2	13	1	6
Cc1ccccc1N1C(=O)C2CCCN2C1=S (stereo unspecified)	-4	-8	0	-0.3	2	6	-3	11	5
Oc1cc(NCc2ccc(F)cc2)cc2cccnc12	12	2	-8	-0.4	-6	2	12	4	5
Cn1c(=O)c2c(nc(N/N=C/c3ccncc3)n2Cc2ccccc2)n(C)c1=O	-5	7	18	-3.7	1	-2	12	-12	0
CCOC(=O)c1c(C)[nH]c(C)c1C(=O)COC(=O)c1cc2ccccc2cc1OC	1	-3	2	0.1	-6	-6	-16	-4	-1
Cc1ccc(NC(=O)/C(=C\c2cccnc2)NC(=O)c2ccco2)cc1	4	5	3	-0.8	-1	-2	-3	-2	1
Cc1cc(C)c(S(=O)(=O)Nc2cccc(/C=C/C(=O)O)c2)c(C)c1	2	-12	-6	0.4	-3	2	-48	3	-3
C/C(=N\NC(=S)Nc1ccc(F)cc1)c1ccc2c(c1)OCCO2	0	8	-3	-3.0	2	3	1	-5	0
COc1ccc(OC)c2c(C)cc(N3CCCN(C)CC3)nc12	-6	2	-6	-6.2	-8	0	-3	0	-1
Cc1c(OC(C)C(=O)N2C[C@H]3C[C@@H](C2)c2cccc(=O)n2C3)ccc2c3c(c(=O)oc12)CCC3 (stereo partly specified)	-2	-8	0	1.2	5	-3	-5	-1	3
CC(C)[C@H](Nc1ccc(S(=O)(=O)N2CCOCC2)cc1[N+](=O)[O-])C(=O)OCC(=O)N(C(C)C)C(C)C	1	3	-1	-2.3	-2	3	3	-6	-1
CC(=O)c1cccc(NC(=O)/C(=C\c2cccnc2)NC(=O)c2ccco2)c1	0	-1	-2	1.2	-2	0	3	-1	3
Nc1ccccc1Nc1cc(-c2ccccc2)nn1-c1ccccc1	1	11	-3	-3.1	1	8	26	-6	5
COc1ccc(NC(=O)/C(C#N)=C/c2ccc(Br)o2)cc1	5	3	21	0.5	5	1	5	4	1
OCCN1CCN(C(=S)Nc2cccc(C(F)(F)F)c2)CC1	2&2	-2&4	3&1	0.3&-2.1	6&-2	0&-3	15&14	2&4	0&1

Part of the list above in order of length of the SMILES, falling:
smiles	LEDGF integ inh	SIAE primary	UHRF1 binding	PG9 binder	Tn7 DDE FP	TCR-CD3 inh	ABHD4 inh	TDP2 absorb	PRMT1 FP inh
CC(C)[C@H](Nc1ccc(S(=O)(=O)N2CCOCC2)cc1[N+](=O)[O-])C(=O)OCC(=O)N(C(C)C)C(C)C	1	3	-1	-2.3	-2	3	3	-6	-1
CCOC(=O)c1c(C)[nH]c(C)c1C(=O)COC(=O)c1cc2ccccc2cc1OC	1	-3	2	0.1	-6	-6	-16	-4	-1
CCN1N=C(c2ccccc2)CCC1=O	2	-4	4	-0.9	-3	-8	-6	12	-4

Other entries:
smiles	LEDGF integ inh	SIAE primary	UHRF1 binding	PG9 binder	Tn7 DDE FP	TCR-CD3 inh	ABHD4 inh	TDP2 absorb	PRMT1 FP inh
C[C@H](NC(=O)c1nc[nH]c1C(=O)N[C@@H](C)C(=O)OC(C)(C)C)C(=O)OCc1ccccc1	1	-6	1	-2.3	-6	3	-6	-11	-1
Cc1nn(-c2ccccc2)c2[nH]c(=O)c(CNCCN3CCOCC3)cc12	-2	-2	0	-0.3	4	-4	-1	3	0
COc1ccccc1N1C(=O)C2C(C(=O)c3ccccc3)=NN(c3ccccc3OC)C2C1=O (stereo unspecified)	-6	-2	1	0.2	-2	-8	0	1	6
Cc1ccc(S(=O)(=O)NC(C)(C)CN2CCCCC2)cc1	3	-4	6	-0.1	3	-13	-9	1	6
C/[N+]([O-])=C/c1c(OCc2ccccc2)ccc2ccccc12	3	5	1	2.4	-1	-8	-12	-7	1
Cc1cc(-c2csc(NC(=O)c3cc4ccccc4o3)n2)c(C)n1C	14*	1	4	-1.3	-12	-1	-10	-10	13
CC(C)(CN1CCN(Cc2ccccc2)CC1)NS(=O)(=O)c1ccc(Cl)cc1	3	1	-4	-0.8	-6	3	-4	-5	-2
O=C(CSc1nnc(-c2ccccc2O)n1Cc1ccccc1)NNC(=O)c1ccccc1O	-4	8	-1	-1.1	7	54*	3	2	0
CCCCC1=CC2=CC(=O)C(C)(OC(=O)CC)C(=O)C2=CN1Cc1ccc(OC)cc1 (stereo unspecified)	2	7	-9	-1.6	1	0	21	7	4
CCOC(=O)N1CCN(C(=O)c2ccc3c(c2)NC(=O)/C(=C\c2ccc(OC)c(OC)c2)S3)CC1	-1	2	2	-4.5	7	1	3	1	13
CC(=O)c1ccc(NC(=S)Nc2ccc(Br)c(Cl)c2)cc1	-5	-4	-1	1.9	-2	-4	1	-1	8
O=C(/C=C/NNC(=O)c1ccccc1)c1ccc([N+](=O)[O-])cc1	1	12	-1	-5.0	-7	5	14	-7	5
CSc1nc(N2CCN(C)CC2)c2c(c1C#N)CC(C)(C)OC2	1	2	1	0.2	1	9	57*	11	-1
CCCCOc1ccccc1-c1cc(C(=O)O)[nH]n1	0	-2	-2	0.2	-7	4	3	6	2
Cc1cc(C)cc(Oc2coc3cc(OC(=O)c4cccnc4)ccc3c2=O)c1	4	2	8	0.2	-6	-6	-7	-14	-1
COc1ccc2sc(-c3ccc(N(C)C)cc3)c(-c3ccc4cc[nH]c4c3)c2c1	1	6	2	0.2	-3	3	8	4	1
CC1(C)c2[nH]c3ccccc3c2C[C@H]2C(=O)N(CCCO)CC(=O)N21	3	-1	-1	-2.1	1	0	4	-3	-2
CC1CCCN(C(=O)C2CC(=O)N(c3ccc(Cl)cc3)C2)C1 (stereo unspecified)	-6	2	0	2.1	6	-4	6	-4	4
COc1ccc(-c2nnc(-c3ccccc3O)o2)cc1	0	-5	1	-0.8	-4	-2	4	-8	0
Cc1c(C(=O)OCC(=O)N(C)Cc2ccc(Cl)cc2)oc2ccccc12	2	4	2	0.3	-1	-6	-3	-14	1

An excerpt from above with just PRMT1 FP inh, ABHD4 inh and TCR-CD3 inh:
smiles,PRMT1 FP inh,ABHD4 inh,TCR-CD3 inh
COc1ccc2sc(-c3ccc(N(C)C)cc3)c(-c3ccc4cc[nH]c4c3)c2c1,1,8,3
Cc1nn(-c2ccccc2)c2[nH]c(=O)c(CNCCN3CCOCC3)cc12,0,-1,-4
C[C@H](NC(=O)c1nc[nH]c1C(=O)N[C@@H](C)C(=O)OC(C)(C)C)C(=O)OCc1ccccc1,-1,-6,3

Next results
smiles	LEDGF integ inh	SIAE primary	UHRF1 binding	PG9 binder	Tn7 DDE FP	TCR-CD3 inh	ABHD4 inh	TDP2 absorb	PRMT1 FP inh
Nc1nc(-c2ccc(Cl)cc2)nn1C(=O)c1cccs1	-3	0	-3	-0.9	0	9	1	-12	-3
C=CCNC(=O)c1ccc([N+](=O)[O-])c(Cl)c1	5	-1	-1	0.0	-5	5	6	-1	-2
CCOc1ccc(NC(=O)c2cnsn2)cc1	2	4	15	-2.2	0	3	0	0	-1
CC(=O)N1CCn2c3c(c(=O)c4cc(C)ccc42)CCC31 (stereo unspecified)	20*	4	-1	-2.2	-6	4	4	34*	5
O=C(O/N=C/c1cccc([N+](=O)[O-])c1)C1CC1	1	6	-2	-1.1	6	4	-5	-1	-3
CC(C)C(C(=O)N1CCOCC1)N1C(=O)c2ccccc2C1=O (stereo unspecified)	-1	4	-1	0.1	1	7	5	-2	-1
O=C(O/N=C1\CCS(=O)(=O)c2sccc21)C1CC1	-5	-8	7	2.6	-6	-4	-4	-11	7
O=C(Nc1ccc2oc(=O)ccc2c1)c1ccco1	0	0	-3	-1.3	-4	5	9	-12	-4
CCSc1nc(O)c(C(c2cccc(OC)c2)c2c(O)nc(SCC)[nH]c2=O)c(=O)[nH]1	-1	-3	3	0.5	4	-3	-1	3	13

An excerpt, so the mix of outcomes need not match the whole.
